VDR inh: Inhibitors of the vitamin D receptor (VDR): qHTS; 400,000 compounds, 0.93% hits; VDR-SRC2-3 peptide fluorescence polarization, 2 h; Vitamin D3 receptor (Homo sapiens), P11473; Potency, µM, inactives show max response, negative = inhibition, usual class: inhibitors; active = well fitted inhibition curve with a large enough effect; inconclusive = small, poorly fitted or top-dose-only effect, or another doubt; inactive = no such curve, though single readings can be large or run the other way; also: series mostly up to about 120 µM
Target sequence (P11473 whole entry, looked up): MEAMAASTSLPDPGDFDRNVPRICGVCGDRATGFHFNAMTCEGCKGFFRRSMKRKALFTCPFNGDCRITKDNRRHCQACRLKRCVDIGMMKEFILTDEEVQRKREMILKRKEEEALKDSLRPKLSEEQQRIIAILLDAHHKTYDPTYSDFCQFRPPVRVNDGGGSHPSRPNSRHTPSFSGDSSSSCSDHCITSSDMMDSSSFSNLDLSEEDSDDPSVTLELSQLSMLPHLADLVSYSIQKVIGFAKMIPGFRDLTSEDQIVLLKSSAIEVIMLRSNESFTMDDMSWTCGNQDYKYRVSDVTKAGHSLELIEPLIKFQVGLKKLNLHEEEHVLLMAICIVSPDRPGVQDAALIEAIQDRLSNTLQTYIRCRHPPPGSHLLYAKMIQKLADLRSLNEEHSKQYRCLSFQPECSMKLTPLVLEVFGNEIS
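Fluorescence polarization assay measuring small-molecule disruption of VDR binding to the coregulator peptide SRC2-3. Compounds were pin-transferred (23 nl) into the reagent mix and incubated 2 h at room temperature before reading.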
Active calls of the source: *; ? = inconclusive; & = joins results of further samples. % is scaled to controls: 0 for no effect and ±100 for the full control effect; potency is read from the fitted curve at half-maximal effect. These rows are one share of the data; count on the stated rates, not on these rows.

SMILES	VDR inh
O=C(N/C(=C\c1ccc([N+](=O)[O-])cc1)C(=O)N1CCCCC1)c1ccc(Br)o1	0%
Cc1ccc(-n2nnnc2CNC(=O)c2ccccc2C)cc1C	19%
O=C(NCc1ccc(F)cc1)c1ccc2c(Cl)c3c(nc2c1)CCCC3	-7%
CC1=NN(C(C#N)c2ccc(F)cc2)C(C)(C)C1 (centres undefined)	1%
CCCn1c(SCC(=O)NCc2ccc(OC)cc2)n[nH]c1=O	11%
N#CC1(NC(=O)COc2ccc(S(=O)(=O)N3CCCC3)cc2[N+](=O)[O-])CCCCC1	5%
CC1CCCC(NC(=O)COC(=O)CN2C(=O)C3CCCCC3C2=O)C1C (centres undefined)	2%
CC1Cc2cc(S(=O)(=O)NCc3ccc(F)cc3)ccc2N1C(=O)C1CCC1 (centres undefined)	-4%
Cc1ccc(C)c(NC(=O)Cc2nc(CNCC(C)C)cs2)c1	3%
CS(=O)(=O)c1ccc(Cl)c(NC(=O)Cc2c(Cl)cccc2Cl)c1	3%
Cc1ccc2c(c1)C(=O)CC(O)(C(F)F)O2 (centres undefined)	-15%
O=C(Nc1ccccc1C(=O)N/N=C/c1ccco1)c1ccccc1Cl	9%
O=C(c1ccccc1)N1CCN(C(=O)c2ccccc2Br)CC1	-3%
N#CCCN(Cc1ccccc1)C(=O)Nc1ccccc1	8%
CCCCC(=O)Nc1cc(-c2nc3ncccc3o2)ccc1C	7%
O=S(=O)(O)c1ccc(NN=Cc2ccccc2O)cc1	1%
CCOc1ccc(NC(=NCc2ccc3c(c2)OCO3)SC2CC(=O)N(c3ccc(OCC)cc3)C2=O)cc1 (centres undefined)	1%
Cc1cc(Cl)c(S(N)(=O)=O)cc1OCC(=O)NC1CCCCC1	-25%
Cc1ccc(S(=O)(=O)CC(=O)N2CCCC2)cc1	1%
CCN(CC)S(=O)(=O)c1cccc(-c2nnc(SCC(N)=O)n2CCc2ccccc2)c1	2%

Random excerpt: 2 records from the list.
SMILES	VDR inh
CCOc1ccc(NC(=NCc2ccc3c(c2)OCO3)SC2CC(=O)N(c3ccc(OCC)cc3)C2=O)cc1 (centres undefined)	1%
Cc1ccc(S(=O)(=O)CC(=O)N2CCCC2)cc1	1%

(further entries)
SMILES	VDR inh
O=C(/C=C/c1ccccc1)NNC(=O)c1cccc(Cl)c1	16%
Cc1nc(N)nc(N(C)c2ccccc2)c1Br	2%
C=CCN1C2CCCC1CC(NC(=S)Nc1cccc(OC)c1)C2 (centres undefined)	-22%
CCc1ccc(NC(=O)C2CCC(CNS(=O)(=O)c3cccs3)CC2)cc1 (centres undefined)	-8%
O=C(Nc1ccc(O)cc1)c1ccc(C(=O)c2ccccc2)o1	3%
CC1(C)Cc2c(sc3c2c(=N)n(Cc2ccco2)c(=O)n3Cc2ccc(Cl)cc2)CO1	-16%
COc1ccc(-c2cc3c(=O)n(CC(=O)NCCCN4CCC(Cc5ccccc5)CC4)ncn3n2)cc1	15%
COc1ccc(/C=C/c2cc(OC)c(OC)cc2CC[N+](C)(C)C)cc1	-15%
O=C(COC(=O)Cc1ccc(S(=O)(=O)N2CCOCC2)s1)NCCc1ccccc1	8%
CC(=O)Nc1cccc(-c2nnc(SCC(=O)c3cc([N+](=O)[O-])ccc3Br)o2)c1	-16%
Cc1ccc(NC(=S)NCc2ccccc2Cl)c(C)c1	-9%
CCOc1ccc(NC(=O)CN2CCN(Cc3ccccc3)S2(=O)=O)cc1	6%
CC(/C=C/c1ccc(N(C)C)cc1)=N\N=C1\NC(=O)CC(C(=O)Nc2ccccc2)S1 (centres undefined)	-12%
CSCCC(Nc1ccc(S(=O)(=O)N2CCOCC2)cc1[N+](=O)[O-])C(=O)OCC(=O)N(C(C)C)C(C)C (centres undefined)	-1%
CCN1CCN(c2ccccc2NC(=O)C(C)Oc2ccc(C(C)=O)cc2)CC1 (centres undefined)	-2%
CCOc1ccc(NC(=O)CC2C(=O)N(c3cccc(OC)c3)C(=O)N2C(C)C)cc1 (centres undefined)	1%
CCn1cc(Br)c(C(=O)Nc2cccc(Cl)c2)n1	-3%
COc1ccc(NC(=O)CSc2cccc3cccnc23)c(OC)c1	-1%
COc1ccc2[nH]c(O)c(NC(C)=O)c2c1	-9%
CCc1nn2c(=O)cc(COc3ccc(/C=C4\C(=N)N5N=C(C)SC5=NC4=O)cc3)nc2s1	-8%
Fc1ccc(Nc2ncnc3onc(-c4ccc(Cl)cc4)c23)cc1Cl	1%
CCOC(=O)N1CCN(C(=O)Cn2c(=O)sc3ccccc32)CC1	9%
CCC1(CC)C(=O)NC(=O)NC1=NCCc1ccc(O)cc1	4%
COCCOC(=O)c1c(C)oc2ccc(NS(=O)(=O)c3ccc(C(=O)O)cc3)cc12	-6%
c1ccc(C2[C@H]3CN(Cc4cccnc4)[C@H](c4ccccc4)C34CC2(c2ccccc2)C4)cc1 (some centres undefined)	15%
COc1ccc2c(ccc[n+]2CC(=O)c2ccccc2)c1	30%
CCN(C(=O)COC(=O)C1=COCCO1)c1c(N)n(Cc2ccccc2)c(=O)[nH]c1=O	?
CC(=O)NN1C(=O)/C(=C\c2ccc(C)cc2)SC1=S	8%
CCOC(=O)/C(C#N)=C1/SC(CCO)C(=O)N1c1ccccc1 (centres undefined)	1%
COc1cc(NC(=O)C2CCCCN2)ccc1OCC(C)C (centres undefined)	1%
O=C(CSc1nnnn1-c1ccccc1)NC(=O)Nc1ccc2c(c1)OCCO2	15%
Cc1ccc(-c2nnn(CC(=O)N3CCN(c4ccccc4)CC3)n2)o1	19%
Cc1cccc(NS(=O)(=O)c2ccc3c(c2)CCN3C(=O)C2CCC2)c1	-21%
CCCCC1=CC2=CC(=O)C(C)(OC(=O)c3cccs3)C(=O)C2=CO1 (centres undefined)	-13%&6%
COc1ccccc1-c1c(C(F)(F)F)oc2cc(OCC(=O)Nc3ccccc3C(F)(F)F)ccc2c1=O	-6%
CC1=NN(c2ccccc2)C(=O)C1N=Nc1ccc(S(N)(=O)=O)cc1 (centres undefined)	-10%
O=C(Nc1ccc(Cc2ccncc2)cc1)C1CCC(N2C(=O)C3CCCCC3C2=O)CC1 (centres undefined)	10%
NS(=O)(=O)c1cccc(NC(=O)c2cccc(N3C(=O)c4ccccc4C3=O)c2)c1	7%
COc1ccc(/C=N/N2C(=O)C3C4C=CC(C4)C3C2=O)cc1[N+](=O)[O-] (centres undefined)	-6%
COc1ccc(CCNC(=O)CSc2ccc(-c3ccco3)nn2)cc1OC	-4%
C=Cc1ccc(CSc2nc(-c3ccccc3Cl)nc3c2Cc2c(CO)cnc(C)c2O3)cc1	7%
Cc1ccc(C(=O)N2CCN(c3ncccn3)CC2)c(C)c1	1%
COC(=O)CN(C(=S)Nc1ccc(Cl)cc1)C1CC(=O)N(c2ccc(OC)cc2)C1=O (centres undefined)	2%
COc1ccc(NS(=O)(=O)c2cc(OC)ccc2NC(=O)c2cc(C)oc2C)cc1	13%
COc1ccc(-c2cc(C(=O)Nc3cccc(C(C)=O)c3)no2)cc1OC	-16%
Cc1cc(NC(=O)CCC(=O)N(CCC(C)C)C(C(=O)NC2CCCC2)c2cccnc2)no1 (centres undefined)	6%
COc1ccc(N(C(=O)CNC(=O)c2cccs2)C(C(=O)NC2CCCC2)c2ccncc2)cc1 (centres undefined)	2%
Cn1c(CO)cnc1SCC(=O)c1ccc(F)cc1	0%
Cc1cccc(NC(=O)N2CCCC2C(=O)NCc2cccs2)c1 (centres undefined)	11%
C/C(=N\NC(=O)c1ccncc1)c1cc2ccccc2o1	3%

More structures:
SMILES	VDR inh
O=C(CSCc1c(Cl)cccc1Cl)NCc1ccco1	16%
O=c1cc(O)c(-c2ccc(Cl)cc2)c(Cl)[nH]1	-10%
Nc1nc2c(ncn2C2OC(CO)CC2O)c(=O)[nH]1 (centres undefined)	-2%
COc1cc(/C=C2\SC(=O)NC2=O)ccc1Oc1ccc([N+](=O)[O-])cc1[N+](=O)[O-]	?
Cc1ccc(NC(=O)COc2ccccc2CNC(C)(C)CC(C)(C)C)cc1	2%
Cc1ccc(Nc2cc(C)c3c(O)cccc3n2)cc1C	15%
COc1cc(OC)cc(-c2ncc3ccccn23)c1	3%
Nc1ccc(Sc2ccc([N+](=O)[O-])cc2)cc1	3%
Cn1c(SCC(=O)NCC2CCCO2)nnc1-c1ccc(S(=O)(=O)N2CCCC2)cc1 (centres undefined)	1%
Cc1nc2nc(C)c(CCC(=O)NCCc3ccccc3)c(C)n2n1	-20%
COC(=O)c1cccc(S(=O)(=O)N2CCC(C)CC2)c1	-11%
CCC(C)NC(=O)C1(O)c2cc(Br)ccc2NC(=O)N1c1cccc(OC)c1 (centres undefined)	-6%
O=C(NCCc1ccccn1)c1cccnc1Oc1ccc(Cl)cc1	-17%
N#C/C(=C\c1cccc(O)c1)C(=O)Nc1ccc2c(c1)OCCO2	-3%
COC(=O)c1ccc(OCC2c3cc(OC)c(OC)cc3CCN2C(=O)Cc2ccccc2)cc1 (centres undefined)	-1%
Cc1cccc2c1-c1sc(C(=O)NCCc3ccc(Cl)cc3)cc1CO2	-10%
O=C(Nc1cccc(C(=O)O)c1)/C(=C\c1ccc2c(c1)OCO2)NC(=O)c1ccccc1	17%
OC[C@H]1O[C@@H](n2cnc3c(NCc4ccccc4)ncnc32)[C@H](O)[C@@H]1O	11%
O=C(CN1C(=O)CSc2ccc(S(=O)(=O)N3CCOCC3)cc21)NCc1ccc(Cl)cc1	11%
COc1ccc(S(=O)(=O)N2CCc3ccccc3C2)cc1C(=O)O	-2%
COc1ccc(OCCCC(=O)Nc2nc(C)c(C(C)=O)s2)cc1	3%
Cc1cc(C)c(C(=O)N(CCN(C)C)CC2CCCN(Cc3ccccc3F)C2)o1 (centres undefined)	6%
N#C/C(=C\c1ccc(O)cc1)c1nc2ccccc2o1	-7%
Cc1ccccc1-c1nc2cc(NC(=O)COc3ccc(F)cc3)ccc2o1	0%
CN(CC(=O)Nc1cccc(C(F)(F)F)c1)C1=NS(=O)(=O)c2ccccc21	-4%
O=C1CC[C@@H]2CC3(C[C@@H]4CCN1[C@H]24)Nc1ccccc1NC3=NC1CCCCC1 (some centres undefined)	-7%
O=C(CN(Cc1ccccc1)C(=O)CNS(=O)(=O)c1ccc(Cl)cc1)NCC1CCCO1 (centres undefined)	-3%
Cc1ccc2nc(N3CCN(S(=O)(=O)c4ccc5c(c4)OCCO5)CC3)c(C#N)cc2c1	19%
Cc1ccc(NC(=O)c2ccccc2N(C)S(C)(=O)=O)cc1C	5%
CC(C)Oc1ccc(CNC(=O)c2ccc3nc(C(C)C)oc3c2)cc1	6%
O=C(NCCOCc1ccc(Cl)cc1)c1ncn[nH]1	2%
CCCC/C(C)=N/NC(=O)NC1CCCCC1	11%
Cc1noc(C)c1-c1nccc(NCc2cccnc2)n1	-18%
Cc1cc(C)cc(NC(=O)CN2CCN(CCN=CC3=C(O)CC(c4ccc(Cl)cc4)CC3=O)CC2)c1 (centres undefined)	5%
CS(=O)(=O)N(CC(=O)Nc1ccccc1-c1ccccc1)c1cccc(F)c1	4%
NS(=O)(=O)c1cccc(NC(=S)NCc2ccc3c(c2)OCO3)c1	-8%
O=C(NN=C1CCCCCC1)c1c[nH]c2ccccc12	-8%
Cc1ccc(Cl)cc1NC(=O)CSc1nc2ccccc2nc1Cc1ccccc1	8%
O=C(c1ccc(CNc2c(N3CCCC3)c(=O)c2=O)cc1)N1CC=C(c2ccccc2)CC1	-4%
O=C(CSc1ccc2nnc(-c3ccccn3)n2n1)Nc1nccs1	1%
CC(CCC(=O)O)C1CCC2C3CC[C@@H]4CCCC[C@@]4(C)C3CC[C@@]12C (some centres undefined)	-20%
CC[C@@]12C(=O)N(c3ccccc3)C(=O)N1[C@H](c1ccc(OC)cc1)[C@@H]1C(=O)N(C(C)(C)C)C(=O)[C@@H]12	-10%
O=C(CCCCCn1c(=O)c2sccc2n(CC(=O)Nc2cc(C(F)(F)F)ccc2Cl)c1=O)NCc1ccccc1Cl	0%
CN(C)C(=S)N=Nc1[nH]c2ccccc2c1O	0%
CCSc1nnc2ccc(-c3ccc(C)cc3)nn12	6%
COc1ccc(CN2CCNC(=O)C2CC(=O)NCc2cn3ccc(C)cc3n2)c(OC)c1 (centres undefined)	4%
Nc1nc(O)c(CC(=O)O)s1	16%
Cc1cccc(/C=N/NC(=O)c2c(-c3ccccc3)noc2C)c1O	26%
CC#CC(=O)NCC1(N(C)Cc2ccccc2)Cc2ccccc2C1	-17%
CN(Cc1ccccc1)C(=O)COC(=O)/C=C/c1ccco1	-14%

Structures shown so far that contain two or more sulfur atoms:
SMILES	VDR inh
CCN(CC)S(=O)(=O)c1cccc(-c2nnc(SCC(N)=O)n2CCc2ccccc2)c1	2%
CCc1ccc(NC(=O)C2CCC(CNS(=O)(=O)c3cccs3)CC2)cc1 (centres undefined)	-8%
O=C(COC(=O)Cc1ccc(S(=O)(=O)N2CCOCC2)s1)NCCc1ccccc1	8%
CSCCC(Nc1ccc(S(=O)(=O)N2CCOCC2)cc1[N+](=O)[O-])C(=O)OCC(=O)N(C(C)C)C(C)C (centres undefined)	-1%
CCc1nn2c(=O)cc(COc3ccc(/C=C4\C(=N)N5N=C(C)SC5=NC4=O)cc3)nc2s1	-8%
CC(=O)NN1C(=O)/C(=C\c2ccc(C)cc2)SC1=S	8%
Cn1c(SCC(=O)NCC2CCCO2)nnc1-c1ccc(S(=O)(=O)N2CCCC2)cc1 (centres undefined)	1%
O=C(CN1C(=O)CSc2ccc(S(=O)(=O)N3CCOCC3)cc21)NCc1ccc(Cl)cc1	11%
NS(=O)(=O)c1cccc(NC(=S)NCc2ccc3c(c2)OCO3)c1	-8%
O=C(CSc1ccc2nnc(-c3ccccn3)n2n1)Nc1nccs1	1%
